Screens deposited in PubChem BioAssay by several laboratories.
FGF22 binding = FGF22 (human) thermal shift binding; calls only at 9.99 µM; actives 1.5% (n = 340,000); recombinant FGF22 thermal shift, SYPRO orange fluorescence; percent of sucrose octasulfate shift, DMSO zero; Q9HCT0;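 active = melting point raised past a set limit in the mean and every replicate; inconclusive = no clear call; three in four hits are not shown here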
Target sequence (Q9HCT0 whole entry, looked up): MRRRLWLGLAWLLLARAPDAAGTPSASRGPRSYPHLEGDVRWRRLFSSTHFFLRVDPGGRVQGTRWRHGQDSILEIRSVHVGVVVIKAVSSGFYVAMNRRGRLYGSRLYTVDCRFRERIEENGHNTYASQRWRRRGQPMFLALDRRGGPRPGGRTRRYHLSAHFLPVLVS
ALR inh = inhibitors of human sulfhydryl oxidase ALR; P55789; purified ALR, DTT oxidation, H2O2 HRP-luminol luminescence; inhibition, % (test concentration not listed); actives 3.8% (n = 290,000);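 active = mean and each replicate at 75% or more; inconclusive = only one of the two met; inactive = neither met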;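 also: stock transfer was 7.5 nL into about 7.5 µL; 0% = neutral wells and 100% = wells with inactivated enzyme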
Target sequence (P55789 whole entry, looked up): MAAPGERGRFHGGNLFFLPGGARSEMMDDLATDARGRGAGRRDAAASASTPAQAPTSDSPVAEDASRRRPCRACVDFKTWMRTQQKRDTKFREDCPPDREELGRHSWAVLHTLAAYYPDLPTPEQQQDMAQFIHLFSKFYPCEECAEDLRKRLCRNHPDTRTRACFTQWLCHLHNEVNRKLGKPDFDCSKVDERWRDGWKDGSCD
HNF4A DNA FP = change in binding of human HNF4 alpha to DNA. P41235. HNF4a-FITC DNA binding, fluorescence polarization, 1 h. activity change, % at 10 µM. actives 0.3% (n = 360,000); in the data active = activity change above about 30%, passing the limit was not always enough;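 also: controls were the assay level and a saturating level of protein; the project sought stronger binding though the title names inhibitors; some compounds called inactive have numbers as strong as hits; positive values seem to mean higher polarization but the record does not say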
Target sequence (P41235 whole entry, looked up): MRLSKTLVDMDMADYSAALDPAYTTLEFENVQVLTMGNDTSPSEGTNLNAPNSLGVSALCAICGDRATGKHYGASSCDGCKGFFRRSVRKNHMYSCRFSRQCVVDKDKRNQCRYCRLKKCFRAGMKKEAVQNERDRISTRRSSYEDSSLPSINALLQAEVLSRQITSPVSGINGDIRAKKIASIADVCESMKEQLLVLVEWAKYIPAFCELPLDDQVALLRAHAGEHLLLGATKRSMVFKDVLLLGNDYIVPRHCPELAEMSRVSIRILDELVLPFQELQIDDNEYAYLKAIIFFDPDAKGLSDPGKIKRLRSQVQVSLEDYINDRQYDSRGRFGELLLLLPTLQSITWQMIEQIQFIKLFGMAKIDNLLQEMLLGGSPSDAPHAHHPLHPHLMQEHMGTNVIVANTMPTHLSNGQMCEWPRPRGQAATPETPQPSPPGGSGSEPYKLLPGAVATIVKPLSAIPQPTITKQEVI
Ecoli growth = E. coli growth inhibition | Escherichia coli growth, OD600, 23 h; hits give low values | actives 0.21% (n = 330,000) | AID 1053175 | OD600 absorbance (test concentration not listed);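 active = OD600 absorbance below the run mean of sample wells minus 3.6 SD, in any replicate, cut at about 0.56 in these data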;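 also: stock transfer was 300 nL into about 60 µL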
MLL AF4-AF9 inh = blocks AF4 peptide binding to human AF9 | P42568 | AlphaScreen, biotin-AF4 peptide binding to FLAG-AF9 | inhibition, % at 10 µM | actives 0.47% (n = 350,000) | AID 651704;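 active = every replicate reaching a set inhibition limit, whatever the replicate mean, cut at about 25% in these data; inconclusive = mean inhibition reaches that limit but some replicates miss it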;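 also: 0% = plate neutral control median and 100% = total signal loss; the record names both 10 and 1 µM as test concentration; the first replicate is given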
Vif A3G = inhibitors of Vif binding to APOBEC3G peptide, primary screen, biochemical, TR-FRET, GST-Vif 1-94, biotin-A3G peptide, dose response retest (AID 1117319); actives 0.57% (n = 260,000); TR-FRET GST-Vif / biotin-A3G peptide binding; higher % means a stronger effect; test concentration not given here; strong numbers were not always called active; one-dose inhibition, %; IC50 in µM for titrated hits;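 active = above the screen mean plus three standard deviations and confirmed in dose response; inconclusive = results disagree or hit not tested in dose response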;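 also: Vif residues 1-94 fused to GST binding biotinylated APOBEC3G peptide 110-148; 0% = full assay without inhibitor and 100% = GST in place of GST-Vif; retest series ran down from 100 µM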
rRNA inh HTS = selective bacterial rRNA inhibition in E. coli. E. coli WT GFP vs humanized-ribosome RFP mutants, fluorescence, 24 h; hits give low values; DMSO median 0, no signal -100. GFP signal change (wild-type ribosome), % (test concentration not listed). actives 1.6% (n = 350,000). AID 720706;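 active = significant combined selectivity score with lowered wild-type GFP, culture density cut under 30%, mutant RFP and density less affected; inactive = any of these conditions unmet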; also: one replicate is shown; some compounds called inactive have numbers as strong as hits
rRNA inh HTS OD600 = also measured in rRNA inh HTS; calls as there; OD600 change, %; measured here: OD600 growth;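 optical density of the mix in the first replicate; 0 = DMSO median and -100 = no signal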
rRNA inh HTS RFP = recorded beside rRNA inh HTS, whose call it bears; RFP signal change, %; measured here: RFP humanized mutant strains;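 first replicate; 0 = DMSO median and -100 = no signal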
* hit, by the source's call; i = inactive; ? = inconclusive; nt = not tested or not shown; & = joins results of further samples. Only part of the results is shown; count on the stated rates, not on these rows.

structure,HNF4A DNA FP,FGF22 binding,ALR inh,rRNA inh HTS OD600,rRNA inh HTS RFP,Ecoli growth,rRNA inh HTS,Vif A3G,MLL AF4-AF9 inh
C[C@H](CO)N1C[C@H](C)[C@@H](CN(C)Cc2ccccc2)Oc2ccc(NC(=O)CCCCCC(=O)Nc3ccccc3N)cc2CC1=O,nt,i,nt,8,0.2,nt,-2,nt,0.3
CC[N+](C)(CC)CC(=O)OCC1C(C)C=C(C)CC1C (centres undefined),1.6,i,-6,8,1.9,0.7,5,7%,-4.8
CSc1ncccc1C(=O)OCc1ccc(Br)cc1,-4.2,nt,0,-9,-2.7,0.67,-19,-12%,-2.5
CCN(CC)CCn1c(SCC(=O)Nc2ccc(F)cc2)nc2c(sc3ccccc32)c1=O,nt,nt,99*,nt,nt,0.7,nt,-47%,nt
Cc1[nH]cnc1C(=O)N/N=C/c1c(Cl)cccc1Cl,2.7,i,-8,9,-1.6,nt,3,nt,0.3
COC(=O)C1CN(S(=O)(=O)c2ccc(C)cc2)CCN1S(=O)(=O)c1ccc(C)cc1 (centres undefined),-4.6,nt,-10,nt,nt,0.67,nt,2%,nt
CC1Cc2cc(S(=O)(=O)N3CCC(C(=O)N(C)Cc4ccco4)CC3)ccc2N1C(=O)C1CCC1 (centres undefined),-2.9,i,-3,-2,10,0.69,3,nt,6.9
COc1cccc(-c2ccc([C@@H]3[C@@H](CO)N4CCCCN(C(=O)c5ccc6c(c5)OCO6)C[C@@H]34)cc2)c1,nt,i,nt,-75,-3.7,nt,-52,nt,-6.2
CC1(C)OC(=O)C2=C(C[C@@H](C3CC3)O[C@H]2c2ccc(Cl)cc2)O1,-2.0,i,nt,3,-2.6,nt,4,nt,2.3
CCNC(=O)CN(C1CCCCC1)S(C)(=O)=O,3.8,i,nt,nt,nt,0.72,nt,-8%,-13
Cc1ccc(S(=O)(=O)N(C)C[C@@H]2OCCCC[C@@H](C)Oc3ccc(N(C)C)cc3C(=O)N([C@H](C)CO)C[C@H]2C)cc1,nt,i,nt,-4,0.8,nt,-6,nt,9.4
CCOc1ccc(S(=O)(=O)n2nc(C)cc2C)cc1,1.6,i,-25,8,-0.1,0.68,7,2%,-1.6
Cc1ccc(C2(c3ccc(C)cc3)CC2C(=O)NC(C)C)cc1 (centres undefined),-1.4,i,-3,-1,-1.5,0.68,1,-4%,-2.0
COc1ccc(NC(=O)Cn2nc(C(=O)O)c3ccccc3c2=O)cc1Cl,-3.2,i,-4,15,0.9,0.68,-1,nt,-3.3
Cc1ccc(CNC(=O)Nc2ccccc2)cc1,2.2,nt,-10,nt,nt,0.73,nt,?,nt
Cc1cc(C(C)(C)C)cc(C)c1C(=O)O,3.6,i,5,13,1.4,0.67,4,1%,0.8
CNC[C@@H]1Oc2ncc(-c3ccc(OC)cc3)cc2C(=O)N([C@@H](C)CO)C[C@@H]1C,nt,i,nt,15,0.0,nt,3,nt,2.8
CN(C)CCCNC(=O)C[C@H]1C=C[C@@H](NC(=O)c2ccccc2F)[C@@H](CO)O1,nt,i,nt,-4,0.6,nt,0,nt,-2.8
CCn1c(CN2C(=O)CSc3ccccc32)n[nH]c1=S,-0.6,i,92*,-7,-1.1,0.66,3,-8%,-3.4
CCOc1ccc(-n2ccnc(SCC(=O)NC3CCCC3)c2=O)cc1,-0.2,i,42,12,-0.2,0.69,13,nt,-1.7
CCOc1ccccc1OCC(=O)Nc1cc(S(=O)(=O)N2CCCCC2)ccc1OC,5.7,i,-5,9,-1.3,0.71,5,1%,-0.6
CCCCOc1ccc(C(=O)NCC(=O)N2CC(C)CC(C)C2)cc1 (centres undefined),0.1,i,-10,-33,-5.5,0.65,-16,10%,0.5
O=C(c1ccccc1)N1CCN(C(=O)c2nn3c(C(F)(F)F)cc(-c4ccccc4)nc3c2Br)CC1,3.5,i,-2,0,-1.5,0.67,2,nt,6.7
CCOc1cc(C2/C(=C(/O)c3ccc(OC(C)C)cc3)C(=O)C(=O)N2CCCOC)ccc1O (centres undefined),2.0,nt,5,nt,nt,0.74,nt,-1%,nt
CC(=O)O/N=C(/c1nonc1N)N1CCN(c2ccc([N+](=O)[O-])cc2Cl)CC1,-1.9,nt,2,nt,nt,nt,nt,13%,nt
O=C(/C(=N\O)n1cncn1)c1ccc(Br)cc1Br,1.2,i,-9,-3,5.4,nt,5,-2%,8.6
COc1ccc(NC(=O)Nc2ccc3c(c2)C(=O)N([C@@H](C)CO)C[C@@H](C)[C@H](CN(C)S(=O)(=O)c2cccs2)O3)cc1,nt,i,nt,-11,-1.3,nt,-7,nt,1.5
COCCCn1cnnc1SC(C)C(=O)Nc1ccc(S(=O)(=O)N2CCOCC2)cc1 (centres undefined),0.0,i,nt,6,7.9,0.7,11,nt,-5.9
C[C@H](CO)N1C[C@H](C)[C@@H](CN(C)C(=O)C2CCOCC2)Oc2ncc(C#Cc3ccccc3F)cc2C1=O,nt,i,nt,-5,-0.6,nt,1,nt,-1.8
CCN(CC)C(=O)C1=C(C)N(CCCN2CCCC2=O)C(=O)C(CC(=O)NCC2CCCCC2)C1 (centres undefined),-3.2,i,nt,18,1.5,nt,13,4%,-2.1
Cc1ccc(NC(=O)CN(C)C(=O)COC(=O)c2ccc(Cl)cc2O)cc1,-3.0,i,0,8,-0.1,0.7,2,-5%,-0.1
CN(C)S(=O)(=O)N(CC(=O)N1CCC(Cc2ccccc2)CC1)c1ccccc1,-2.1,i,-23,-12,6.9,0.7,-12,3%,1.3
O=C(O)CCn1c(C2CCCCC2)nc2ccccc21,-3.6,nt,-1,nt,nt,0.67,nt,24%,nt
C[C@@H]1CN([C@H](C)CO)C(=O)c2cccc(NS(=O)(=O)c3ccccc3)c2O[C@H]1CN(C)CC1CCCCC1,nt,i,nt,0,-0.7,nt,0,nt,-0.8
C[C@H]1CN([C@@H](C)CO)C(=O)c2cc(-c3ccccc3F)cnc2O[C@@H]1CN(C)C(=O)C1CCCCC1,nt,i,nt,-1,2.6,nt,-2,nt,0.5
CCc1ccc(S(=O)(=O)c2nnn3c2nc(NCCNC(C)=O)c2ccccc23)cc1,4.1,i,-10,-1,-0.2,0.69,1,nt,-1.9
COCCNC(=O)C[C@@H]1C[C@H]2c3cc(NC(=O)CN(C)C)ccc3O[C@H]2[C@H](CO)O1,nt,i,nt,10,0.9,nt,4,nt,0.2
COc1ccc(NC(=O)N(CCO)Cc2cc3c(C)cc(C)cc3[nH]c2=O)cc1,-0.2,nt,-10,nt,nt,0.71,nt,4%,nt
OCCN1CCN(CC(O)COC(c2ccc(F)cc2)c2ccc(F)cc2)CC1 (centres undefined),-4.2,i,11,4,-4.5,0.7,-4,-3%,0.9
CC(C)n1cnc2c(=S)nc[nH]c21,1.4,i,nt,10,2.5,nt,8,14%,?
CC(C)C#Cc1cnc2c(c1)C(=O)N([C@@H](C)CO)C[C@@H](C)[C@H](CN(C)C(=O)c1ccccc1F)O2,nt,i,nt,-5,-1.2,nt,-3,nt,0.1
CN1[C@@H]2c3ccc(-c4cccc(F)c4)c(=O)n3C[C@@H]2[C@@H](CO)[C@@H]1C(=O)NCc1ccccn1,nt,i,nt,-2,-0.7,nt,4,nt,0.9
C[C@H]1CN([C@@H](C)CO)C(=O)c2cc(NC(=O)C3CC3)ccc2O[C@H]1CN(C)Cc1ccc(-c2ccccc2)cc1,nt,i,nt,1,1.3,nt,-2,nt,-1.2
O=C1CC(N2CCN(c3ccc(F)cc3)CC2)C(=O)N1Cc1ccccc1 (centres undefined),-1.6,i,34,-5,-8.8,0.68,-6,nt,-0.9
OC1(c2ccc(Br)cc2)CCN(Cc2cccc(Br)c2)CC1,0.0,i,-6,-72,-8.0,0.62,-37,nt,-5.9
COc1ccccc1-c1cccc(-c2nc(C(=O)Nc3nccs3)cc3c2[C@@H](CCO)N(C(C)=O)C3)c1,0.8,i,nt,6&0,1.2&3.9,nt,-2&0,nt,5.7&0.6
O=C(CSc1nnc(-c2ccncc2)n1-c1ccc(F)cc1)NC(=O)NCc1ccco1,-15,i,2,-4,0.2,0.66,8,27%,2.0
CC(=O)n1cc([C@@H]2C=C(C(=O)N3CCOCC3)O[C@H](OCCCCO)C2)c2ccccc21,-2.0,i,-17,9,2.1,nt,5,nt,-1.5&-2.1
O=C(Nc1ccccc1Cl)NN1CCCCCC1,2.6,i,nt,nt,nt,0.64,nt,7%,0.8
Cc1c(N=Nc2ccc(O)cc2)c(=O)n(-c2ccccc2)n1C,-1.8,i,1,8,0.7,0.69,6,nt,-4.8
O=C1/C(=C/c2cccc3ccccc23)CCCc2ccccc21,3.9,nt,7,nt,nt,0.69,nt,7%,nt
COc1ccccc1-c1cn(CC[C@H]2CC[C@H](NC(=O)C3CC3)[C@@H](CO)O2)nn1,nt,i,nt,2,0.9,nt,-4,nt,0.6
COc1cccc(CC(=O)OC(C)C(=O)Nc2ncc(Cl)cc2Cl)c1 (centres undefined),1.3,i,-2,1,-1.9,0.69,4,1%,-6.6
CN(C)/N=C/c1ccc([N+](=O)[O-])cc1[N+](=O)[O-],-2.6,i,-17,2,-5.4,nt,1,nt,14
C[C@@H]1CN([C@H](C)CO)C(=O)c2cccc(NS(=O)(=O)c3cn(C)cn3)c2O[C@H]1CN(C)S(=O)(=O)c1ccc(Cl)cc1,nt,i,nt,-9,1.1,nt,2,nt,-1.3
COc1ccc(NC(=O)CN(C)S(=O)(=O)c2ccccc2)c([N+](=O)[O-])c1,39*,nt,-14,nt,nt,0.68,nt,-2%,nt

(more compounds)
structure,HNF4A DNA FP,FGF22 binding,ALR inh,rRNA inh HTS OD600,rRNA inh HTS RFP,Ecoli growth,rRNA inh HTS,Vif A3G,MLL AF4-AF9 inh
COC(=O)/C(C#N)=C1/SC=C(C)N1c1ccccc1,0.0,nt,-15,nt,nt,0.74,nt,1%,nt
CC(C)S(=O)(=O)c1csc(C(=O)Nc2ccc(F)cc2)c1N,3.3,i,-5,0,7.7,0.67,-7,4%,-17
O=C(C[C@@H]1C/C=C\CCC(=O)OC[C@@H]2CCCN2C1=O)N[C@@H](CO)Cc1ccccc1,-5.0,i,5,7,-2.5,nt,-2,nt,nt
O=C(CN1C(=O)C2C3C=CC(C3)C2C1=O)Nc1nc(-c2ccccn2)cs1 (centres undefined),4.0,nt,-2,nt,nt,0.66,nt,9%,nt
C=CCOc1c(Br)cc(/C=C2/NC(=S)N(C(C)=O)C2=O)cc1OC,3.3,i,12,-74,-15,nt,-55,6%,-2.3
O=C(CN1C(=O)NC2(CCCCCCC2)C1=O)Nc1ccc(Br)cc1,0.1,i,5,-41,-2.8,0.69,-10,-11%,5.4
COc1ccc(OC)c(NC(=O)NC2CCCCCCC2)c1,7.0,i,-18,1,-0.1,0.71,6,-7%,2.5
CCOC(=O)c1c(NC(=O)CC2Nc3cc(C)c(C)cc3NC2=O)sc(C)c1C (centres undefined),4.9,i,-3,12,11,0.71,-25,-5%,2.3
CCc1csc(N2[C@H](C#N)[C@H](c3ccc(-c4cccc(F)c4)cc3)[C@@H]2CO)n1,nt,i,nt,-24,30,nt,0,nt,-0.9
